High-throughput results as filed in PubChem BioAssay.
Rango complex inh: Rango-importin beta binding inhibition. Q14974. Rango CFP/YFP FRET sensor + importin beta, 45 min. Potency, µM (titrated, usually from 92.2 µM), for inactives: at the highest dose inhibition of complex formation. 340,000 compounds, 0.031% hits; active = rising FRET ratio curve, often small or poorly fitted; inconclusive = mostly compound fluorescence or quenching in the first reads; inactive = flat curves in all reads;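 note: potency is the fitted concentration of half-maximal effect; 0% = DMSO wells and 100% = buffer wells lacking importin beta; nearly all actives have a fitted effect of over 15% in size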
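Inhibition scored from the CFP 486 nm/YFP 530 nm FRET ratio 45 min after adding 0.125 microM importin beta to 50 nM Rango biosensor preincubated 5 min with compound (room temperature, PBS with DTT, Tween-20, BSA). No-importin wells as positive control.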
GLA inh pH 4.5: alpha-galactosidase A (human) inhibition, pH 4.5. P06280. purified enzyme, 4-MU-alpha-Gal fluorescence, pH 4.5. activity change, negative = inhibition, % at 105 µM. 230,000 tested, under 10 active; inconclusive = small, poorly fitted or top-dose-only inhibition, or a rising curve; inactive = flat fitted curve, though single readings scatter; no compound was filed as active;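 note: 0% = full activity with enzyme and -100% = basal without enzyme; dose as in the result columns while the protocol names 77 µM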
Target sequence (P06280 whole entry, looked up): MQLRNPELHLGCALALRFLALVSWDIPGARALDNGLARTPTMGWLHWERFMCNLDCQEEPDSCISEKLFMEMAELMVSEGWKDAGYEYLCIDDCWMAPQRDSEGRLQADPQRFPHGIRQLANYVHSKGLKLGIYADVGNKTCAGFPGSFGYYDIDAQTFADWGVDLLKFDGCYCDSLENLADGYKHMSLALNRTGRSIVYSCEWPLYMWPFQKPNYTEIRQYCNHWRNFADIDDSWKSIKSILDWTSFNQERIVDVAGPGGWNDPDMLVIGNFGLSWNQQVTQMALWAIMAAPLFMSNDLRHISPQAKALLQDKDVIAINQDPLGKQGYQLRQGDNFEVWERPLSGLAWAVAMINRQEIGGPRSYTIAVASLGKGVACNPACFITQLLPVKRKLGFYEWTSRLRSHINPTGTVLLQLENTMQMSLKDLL
Rango dissoc inh: prevents RanGTP from dissociating the Rango-importin beta complex. Biochemical FRET Rango-importin beta, RanGTP-induced dissociation. Potency, µM (doses to about 46.1 µM), for the others: at the highest dose activity change, negative = inhibition. 340,000 compounds, 0.071% hits; active means falling FRET ratio curve, often poorly fitted, with flat reads before Ran was added; inconclusive means other falling curves, or compound fluorescence or quenching; inactive means flat or rising ratio curve;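 note: potency is the fitted concentration of half-maximal effect; % of control where 0% means no effect; nearly all actives have a fitted effect of over 45% in size; -100% = wells without RanGTP and RCC1; the record marks most hits as doubtful in a second field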
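Rango/importin beta premix (0.1/0.25 uM final), PBS + 1 mM DTT + 0.02% Tween-20 + 0.1% BSA; cpd 5 min RT; FRET pre-read; + RanGTP-RCC1 (0.6 uM Ran, 2 mM GTP, 0.2 uM RCC1); 45 min RT; FRET post-read, ex 430, em 486/530 nm.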
miR-21 FLuc: raises the signal of a miR-21 reporter | HeLa miR-21 FLuc reporter, luciferase, 48 h | Potency, µM (highest dose often 38.3 µM), inactives show at the highest dose reporter change, positive = more light | 340,000 tested, under 10 active; active = well fitted rising curve with a large enough effect; inconclusive = small, poorly fitted or top-dose-only effect; inactive = no such curve, though single readings can be large or run the other way;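 note: % of control where 0% means no effect; miR-21 action dims this reporter so a rising signal means less miR-21 action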
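Compounds were titrated across several concentrations (up to approximately 40 uM) and incubated 48 hours with HeLa miR-21-FLuc reporter cells (miR-21 target sequence downstream of FLuc, endogenous miR-21). Readout was firefly luciferase luminescence after lytic detection reagent.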
The depositor's hits bear a star; ? = inconclusive; . = not tested or not shown; & = joins results of further samples; [ ] = remark or other dose.

Start of the listing, in advance:
mol	Rango complex inh	miR-21 FLuc	GLA inh pH 4.5	Rango dissoc inh
COc1ccc(C(=O)NNC(=O)CSc2nnc(-c3cccnc3)n2C)cc1	1.7%	4.2%	9.9	11.8%
Cc1cccc(NC(=O)CSc2nnc(-c3ccco3)o2)c1	-2.1%	-15.3%	1.7	0.9%

The whole of this part, from the start:
mol	Rango complex inh	miR-21 FLuc	GLA inh pH 4.5	Rango dissoc inh
COc1ccc(C(=O)NNC(=O)CSc2nnc(-c3cccnc3)n2C)cc1	1.7%	4.2%	9.9	11.8%
Cc1cccc(NC(=O)CSc2nnc(-c3ccco3)o2)c1	-2.1%	-15.3%	1.7	0.9%
COc1ccc(/C=C(/NC(=O)c2ccco2)C(=O)N2CCCCCC2)cc1OC	-0.4%	-7.5%	.	9.5%
CC(=O)Nc1ccc2oc(C)nc2c1	-4.0%	-0.8%	18.3	-8.9%
CCN(CC(=O)NC1CCS(=O)(=O)C1)C(=O)c1cc(OC)c(OC)c(OC)c1 (stereo unspecified)	-1.6%	.	.	1.1%
Cc1c2n(c3ccccc13)CCC2=O	-0.7%	-1.9%	.	0.0%
COc1ccccc1CNC(=O)COC(=O)c1ccc(C(=O)c2ccccc2)cc1	-1.9%	.	.	-9.7%
O=C1CC(N2CCN(c3ccccn3)CC2)C(=O)N1c1ccc(Cl)cc1 (stereo unspecified)	2.9%	-6.1%	-8.3	15.6%
COc1cc(CN(C(=S)NCC(=O)O)C2CCCC2)cc(OC)c1OC	-1.0%	-1.1%	0.2[21.1 µM]	-3.4%
CCOC(=O)c1cnc2c(OC)cccc2c1Nc1ccc2c(c1)OCCO2	-5.0%	-8.4%	-2.0	-7.1%
O=C(CC1C(=O)NCCN1CC1CCCCC1)NCc1cccc(F)c1F (stereo unspecified)	-2.0%	-8.0%	-0.1	-12.9%
CCC(=O)N1CCN(CCN=CC2=C(O)CC(C)(C)CC2=O)CC1	4.4%	-5.8%	-1.0	-2.6%
COc1ccc(-c2nc(-c3cccnc3)no2)cc1	0.0%	-67.3%	0.5	-16.7%
CC[n+]1cc(C)ccc1/C=C/c1ccc(N(C)C)cc1	?	?	.	?
CCOC(=O)c1cc(C)n(-c2c(C)n(C)n(-c3ccccc3)c2=O)c1C	-1.2%	-2.5%	4.7	-1.4%
C=CCN(Cc1ccc(Cl)s1)C(=O)c1cc(S(=O)(=O)N2CCOCC2)ccc1F	0.8%	.	.	-11.4%
Cc1ccc(C)c(NC(=O)COC(=O)Cn2c(C)csc2=O)c1	-0.4%	.	.	-9.7%
CCOc1cc(CNn2cn[nH]c2=S)cc(Cl)c1OCc1ccccc1F	-2.5%	6.2%	-0.6	-0.4%
Cc1ccc(C(=O)Nc2cccc(C(=O)O)c2)cc1S(=O)(=O)N1CCOCC1	0.3%	-35.5%	1.1	0.1%
Brc1ccc(-c2nnc(-c3ccccc3Br)o2)cc1	0.1%	-49.1%	-5.4	-8.8%
Cc1ccc(NC(=O)c2ccc(CSc3ccccn3)cc2)cc1	-3.7%	-20.8%	6.9	4.6%
COc1cc(/C=C/C(=O)O)cc(S(=O)(=O)NC2CCCC2)c1OC	2.2%	-0.8%	4.0	?
Cc1c(NC(=O)CSc2nc3ccc(Cl)cc3[nH]2)c(=O)n(-c2ccccc2)n1C	-3.2%	0.9%	7.0	18.4%
COc1ccc(S(=O)(=O)N2CCOC2CNC(=O)C(=O)NCCCN2CCOCC2)cc1OC (stereo unspecified)	-0.9%	.	.	-5.1%
COCC(=O)N(Cc1cc2cccc(C)c2[nH]c1=O)c1ccccc1	?	1.3%	.	19.3%
Cc1[nH][nH]c(=O)c1C=NCc1cccnc1	-0.9%	1.9%	0.3	-0.1%
CC(C)(C)C(=O)/C(=C\c1ccc([N+](=O)[O-])cc1)n1cncn1	.	?	1.7	.
CCC1CCCCN1Cc1ccc(OC)c(C)c1C (stereo unspecified)	7.5%	1.6%	-14.5	3.7%
COC(=O)c1ccccc1NC(=O)NC1CCN(Cc2ccccc2)CC1	0.0%	-4.3%	-10.0	-15.0%
Cc1ccccc1OC1C(=O)N(CC2CCCO2)C1c1ccc2c(c1)OCO2 (stereo unspecified)	1.3%	11.9%	-7.4	-19.5%
CCCCc1ccc(NC(=O)COc2ccc(C(=O)Nc3ccccc3OCC)cc2)cc1	-0.5%	3.8%	3.2	-12.7%
Oc1ccc(/C=C/c2nc(-c3ccccc3O)n(-c3ccccc3)n2)cc1	-3.5%	1.3%	-0.7	-7.3%
CCOc1ccc(N2C(=O)CC(N3CCN(c4ccc(F)cc4)CC3)C2=O)cc1 (stereo unspecified)	-2.4%	-4.6%	.	5.0%
COc1ccc(N(CC(O)CN2C(=O)NC(C)(C)C2=O)S(=O)(=O)c2ccccc2)cc1 (stereo unspecified)	-4.0%	-1.7%	2.5	1.5%
CCOC(=O)C1CCN(C(=O)c2cc(S(=O)(=O)N3CCCCCC3)ccc2OC)CC1	0.0%	.	.	3.3%
CCOC(=O)N1CCN(S(=O)(=O)N2CCCC(C(=O)NCc3ccc(OC)cc3OC)C2)CC1 (stereo unspecified)	-0.2%	0.9%&-0.6%	.	18.7%
COc1ccc(CNC(=O)CC(C)S(=O)(=O)c2ccc3c(c2)NC(=O)CO3)cc1 (stereo unspecified)	-0.5%	7.6%	.	0.1%
Cc1ccc(NC(=O)N/C=C/c2ccccc2)cc1	1.2%	-26.2%	6.5	-2.5%
O=[N+]([O-])c1ccc(S(=O)(=O)NCC(c2cccnc2)N2CCc3ccccc3C2)cc1 (stereo unspecified)	-1.1%	.	.	9.8%
O=C(Cc1ccc(S(=O)(=O)N2CCOCC2)s1)Oc1ccc(F)cc1	2.2%	.	.	-9.1%
CC(C)c1ccc(NC(=O)C(c2ccccc2)N2CCC3(CC2)OCCO3)cc1 (stereo unspecified)	-0.4%	-10.0%	-7.8	-6.5%
CCOC(=O)c1c(OCCO)nn(-c2ccc(Cl)cc2)c1N	-0.2%	-5.0%	-8.7	-6.9%
CCOc1ccc(CCNC(=O)COC(=O)c2cccs2)cc1OCC	-0.1%	0.3%	.	1.7%
OCCC#Cc1c(-c2ccsc2)sc2ccccc12	2.8%	1.1%	.	-7.4%
COc1ccc(-c2nc3ccc([N+](=O)[O-])cc3o2)cc1	5.8%	-56.0%	-4.3	-0.3%
Cc1ccc(C(=O)Oc2csc(=S)n2C(=O)c2ccc(C)cc2)cc1	-0.7%	-1.0%	-2.7	0.7%
CC1(C)O[C@@H](CC(=O)O)[C@]23CO[C@H](C(=O)[C@]4(C)C2CC[C@@]2(C)[C@H](c5ccoc5)OC(=O)C5O[C@]524)[C@@H]13 (stereo partly specified)	-1.1%	.	.	-0.3%
COc1ccc(N2C(=O)CC(Nc3ccc(C(=O)O)cc3)C2=O)cc1OC (stereo unspecified)	-3.7%	-1.7%	-5.1	-14.3%
O=C(Nc1ccccc1Cl)C1CCCN(c2ncnc3c2nc2n3CCCCC2)C1 (stereo unspecified)	-0.5%	26.3%	.	-22.1%
COc1ccc(NC(=O)c2ccccc2NC(=O)COc2ccccc2)cc1	2.3%	-1.5%	6.3	1.4%

(list continues)
mol	Rango complex inh	miR-21 FLuc	GLA inh pH 4.5	Rango dissoc inh
CCCCC(=O)Nc1ncc(S(=O)(=O)c2ccc([N+](=O)[O-])cc2)s1	2.0%	1.4%	.	-2.9%
CN(C)c1ccc(/C=C/c2c([N+](=O)[O-])c(=O)n(C)c(=O)n2C)cc1	2.7%	-7.7%	.	-5.1%
COc1ccc(NC(=O)c2ccccc2NC(=O)CSc2ccc(Cl)cc2)cc1	0.7%	-5.3%	-0.8	1.6%
Cc1ccc2c(COC(=O)c3ccc(C)c(C)c3)cc(=O)oc2c1	5.4%	-2.7%	.	?
N#CCCOC1(C#CCN2CCCC2)CCCCC1	0.5%	0.0%	.	20.4%
O=C(NCCc1ccc(F)cc1)c1ccc2c(=O)n3c(nc2c1)CCC3	1.5%	.	.	-4.6%
O=C(NCC(c1cccs1)N1CCOCC1)c1ccco1 (stereo unspecified)	-1.1%	23.3%	-1.3	-21.5%
Cc1cccc(N(Cc2nnc3n2CCCCC3)C(=O)Nc2ccccc2)c1	?	-14.2%	5.9	0.2%
O=C1C=C(c2ccc(OC(F)(F)F)cc2)C[C@@H](c2ccc(F)cc2)C1	-1.5%	.	.	-4.0%
COc1ccc(NC(=O)Nc2ccncc2)c(OC)c1	-0.3%	-4.4%	7.6	19.7%
COc1ccc2sc(-c3ccccc3OC)c(C#CCCO)c2c1	-1.5%	.	.	-11.8%
Cc1noc(C)c1COc1ccccc1C(=O)NC(C)c1ccc(F)cc1 (stereo unspecified)	0.1%	.	.	8.2%
Cc1ccc(N(Cc2ccccc2)C(=O)c2cc(S(=O)(=O)N3CCOCC3)ccc2F)cc1	4.9%	.	.	2.1%
CN(C)c1ccc(CNC(=O)c2cc(S(=O)(=O)N3CCOCC3)cn2C)cc1	4.2%	-1.5%	.	0.7%
COc1ccc(OCC(=O)N/N=C/C=C/c2ccccc2)cc1	-0.8%	-19.5%	3.3	-1.3%
COc1ccc(S(=O)(=O)NCCc2ccco2)cc1OC	-0.2%	-1.9%	.	-21.6%
COc1ccccc1C(=O)NCC(=O)OCc1ccc(Br)cc1	0.0%	-2.3%	1.0	-3.7%
O=C(Cn1nnc2ccccc2c1=O)NC1CCCc2ccccc21 (stereo unspecified)	-0.8%	-4.0%	7.5	-8.8%
C=CCN(c1ccccc1)S(=O)(=O)c1cccc(C(=O)O)c1	-3.0%	-0.1%	3.3	-3.6%
CNC(=O)NC(=O)COC(=O)c1cccc(S(=O)(=O)N2CC3(C)CC2CC(C)(C)C3)c1 (stereo unspecified)	4.0%	.	.	-17.5%
O=C(COC(=O)C1CC1)Nc1ccc(OC(F)F)cc1	-2.3%	0.1%	-7.7	-2.3%
O=C(C1CCC1)N1CCN(c2ccnc3cc(Cl)ccc23)CC1	0.2%	17.6%	11.2	-5.7%
C=C[C@H]1C(O[C@@H]2O[C@H](CO)[C@@H](O)[C@H](O)[C@H]2O)OC=C2C(=O)N3CCc4cc(OC)c(O)cc4[C@H]3C[C@H]21 (stereo partly specified)	-1.3%	.	.	2.6%
COc1cccc(-c2ccc3nnc(SCC(=O)N4CCOCC4)n3n2)c1	0.5%	.	.	-10.3%
O=C(CNc1ccc(F)cc1)N/N=C1\CCc2ccccc21	0.3%	-1.3%	4.1	-5.7%
CC(=O)c1c(C(C)=O)c(C)n(-c2ccc3ncccc3c2)c1C	-0.7%	1.5%	0.0	1.4%
Nc1nnc(SCC(=O)c2cccc([N+](=O)[O-])c2)s1	2.2%	3.0%	-4.0	-16.3%
COCC(C)n1c(C)cc(C(=O)CSc2nnc(Nc3ccccc3F)s2)c1C (stereo unspecified)	-2.3%	13.1%	-0.8	-4.3%
CN(c1ccc(C(=O)NCc2ccncc2)cc1)S(C)(=O)=O	0.7%	-3.3%	-8.9	-16.0%
Cn1cccc1C(=O)NS(=O)(=O)c1ccccc1Cl	4.4%	5.2%	1.0	-15.4%
Cc1cc(SCC(=O)NCCCN2CCCC2=O)nc2ccccc12	0.8%	.	.	-16.3%

This is a subset; rates above refer to the full screens.
